LANA-H2B inh = blocks KSHV LANA binding to histone H2A/H2B; Q9QR71; cell-free LANA-H2A/H2B peptide, fluorescence polarization; inhibition, % (no concentration beside the values); 320,000 tested, 0.6% active; AID 2629; in the data active means inhibition mostly above about 10%, no sharp cut-off; inactive means mostly below about 6.7%;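 further: stock transfer was 7.5 nL into about 10 µL; 0% = median of vehicle wells and 100% = median of positive control wells; one replicate is shown; the record names a cut of 25% in any replicate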
HNF4A DNA FP = change in binding of human HNF4 alpha to DNA | 360,000 tested, 0.3% active | activity change, % at 10 µM | AID 1224865 | HNF4a-FITC DNA binding, fluorescence polarization, 1 h | P41235; in the data active means activity change above about 30%, passing the limit was not always enough;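 further: controls were the assay level and a saturating level of protein; the project sought stronger binding though the title names inhibitors; some compounds called inactive have numbers as strong as hits; positive values seem to mean higher polarization but the record does not say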
Target sequence (P41235 whole entry, looked up): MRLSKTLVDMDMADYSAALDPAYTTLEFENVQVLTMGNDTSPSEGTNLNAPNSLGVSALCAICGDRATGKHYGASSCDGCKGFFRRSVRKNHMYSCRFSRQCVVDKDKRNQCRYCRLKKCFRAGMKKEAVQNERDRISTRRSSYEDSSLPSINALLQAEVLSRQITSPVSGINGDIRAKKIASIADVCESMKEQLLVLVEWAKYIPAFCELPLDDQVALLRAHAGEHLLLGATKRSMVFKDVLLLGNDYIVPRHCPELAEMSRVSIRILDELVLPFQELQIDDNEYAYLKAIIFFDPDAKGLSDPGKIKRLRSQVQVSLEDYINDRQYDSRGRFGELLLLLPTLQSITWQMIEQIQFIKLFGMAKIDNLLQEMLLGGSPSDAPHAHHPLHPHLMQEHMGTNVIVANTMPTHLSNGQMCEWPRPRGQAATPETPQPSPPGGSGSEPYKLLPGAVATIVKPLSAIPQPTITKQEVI
Vif A3G = HIV-1 Vif–A3G interaction blockers – biochemical, TR-FRET, GST-Vif 1-94, biotin-A3G peptide, dose response retest, primary screen (AID 1117319); TR-FRET GST-Vif / biotin-A3G peptide binding; higher % means a stronger effect; test concentration not given here; strong numbers were not always called active; inhibition, %, or IC50 in µM where a hit was titrated; 260,000 tested, 0.57% active;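 active means above the screen mean plus three standard deviations and confirmed in dose response; inconclusive means results disagree or hit not tested in dose response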;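 further: Vif residues 1-94 fused to GST binding biotinylated APOBEC3G peptide 110-148; 0% = full assay without inhibitor and 100% = GST in place of GST-Vif; retest series ran down from 100 µM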
Beta2AR agonist = agonists of human beta-2 adrenergic receptor inducing internalization | 340,000 tested, 0.43% active | AID 504454 | P07550 | response, % (no concentration beside the values) | Am2.2-beta2AR cells, FAP receptor internalization, flow cytometry; reference of the scale not given here;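 active means response above a set limit, near 3 SD of response in nonfluorescent compounds, cut at about 42% in these data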;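 further: stock transfer was 100 nL into about 11 µL; a reference agonist was the positive control; negative values mostly stem from fluorescent compounds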
Target sequence (P07550 whole entry, looked up): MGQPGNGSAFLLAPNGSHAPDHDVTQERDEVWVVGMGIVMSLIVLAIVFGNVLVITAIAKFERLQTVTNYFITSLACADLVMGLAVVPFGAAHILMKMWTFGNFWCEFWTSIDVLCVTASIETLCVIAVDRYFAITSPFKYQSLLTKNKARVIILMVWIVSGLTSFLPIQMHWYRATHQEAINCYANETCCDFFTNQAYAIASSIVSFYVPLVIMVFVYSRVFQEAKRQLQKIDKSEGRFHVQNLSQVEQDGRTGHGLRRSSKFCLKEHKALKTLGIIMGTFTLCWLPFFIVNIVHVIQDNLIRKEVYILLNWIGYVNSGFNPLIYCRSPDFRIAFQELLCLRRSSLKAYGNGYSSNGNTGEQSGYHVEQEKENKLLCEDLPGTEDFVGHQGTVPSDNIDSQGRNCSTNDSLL
Calb FLC = C. albicans growth modulation with fluconazole; C. albicans CaCi-2 (fluconazole-resistant clinical isolate) + fluconazole, Alamar Blue growth, 48 h; growth inhibition, % (concentration not given with the values); 300,000 tested, 0.57% active;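 active means most replicates above 75%; inconclusive means exactly half above 75%; inactive means most below 75%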;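 further: all wells also contain fluconazole at 8 µg/ml as a sub-toxic cotreatment; 0% = median of DMSO wells and 100% = median of geldanamycin control wells; wells of about 8 µL received 7.5 nL stock; the first replicate is given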
RanGTP-Impb inh = disruptors of Ran-importin-beta complex formation – biochemical, FRET, CFP-Ran, YFP-importin-beta, homogeneous, primary screen; AID 2216; 300,000 tested, 1.1% active; inhibition, % (no concentration beside the values); cell-free CFP-Ran/YFP-importin-beta FRET ratio;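 active means most replicates above 15%; inconclusive means exactly half above 15%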;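 further: 0% = DMSO wells and 100% = Ran loaded with GDP instead of GTP; wells of about 40 µL received 100 nL stock; the first replicate is given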
ALR inh = blocks human ALR sulfhydryl oxidase activity; P55789; inhibition, % (test concentration not listed); purified ALR, DTT oxidation, H2O2 HRP-luminol luminescence; AID 485317; 290,000 tested, 3.8% active;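 active means mean and each replicate at 75% or more; inconclusive means only one of the two met; inactive means neither met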;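 further: stock transfer was 7.5 nL into about 7.5 µL; 0% = neutral wells and 100% = wells with inactivated enzyme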
Target sequence (P55789 whole entry, looked up): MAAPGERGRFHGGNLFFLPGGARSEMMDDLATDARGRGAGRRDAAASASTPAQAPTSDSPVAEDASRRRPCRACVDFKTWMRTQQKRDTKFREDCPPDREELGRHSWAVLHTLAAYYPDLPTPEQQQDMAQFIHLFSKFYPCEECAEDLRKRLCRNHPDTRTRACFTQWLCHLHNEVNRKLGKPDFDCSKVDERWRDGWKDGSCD
Numbers without * were called inactive; ? = inconclusive; . = not tested or not shown; & = joins results of further samples.

SMILES	LANA-H2B inh	HNF4A DNA FP	Vif A3G	Beta2AR agonist	Calb FLC	RanGTP-Impb inh	ALR inh
CC(=O)C1=C(O)C(=O)N(Cc2ccccc2)C1c1ccc([N+](=O)[O-])cc1 (configuration not stated)	-1.9	-2.1	.	2	-2	5.4	9
Cc1ccc(S(=O)(=O)N2CCCC2)s1	0.7	1.6	.	3	4	-6.9	7
O=C(Nc1cc(S(=O)(=O)N2CCCCC2)ccc1O)c1ccccc1NS(=O)(=O)c1ccc(F)c(F)c1	-0.9	-2.1	.	8	24	-1.4	96*
Cc1cccc(C)c1NC(=S)N/N=C/c1c(Cl)cccc1Cl	-2.6	-2.7	.	6	21	6.5	-1
CC(C)Oc1cccc(C(=O)Nc2ccc(CN3CCOCC3)cc2)c1	0.5	2.5	-1%	2	28	-1.9	1
COc1ccc2[nH]c3c(c2c1)CCN1C(=O)N([C@@H](C)C(=O)NCc2ccc(C)cc2)C(=O)[C@]31C	1.7	4.1	.	4	-4	0.5	-2
O=Cc1ccc(O)c2ncccc12	.	-2.1	11%	9	94*	8.7	.
CN(C)S(=O)(=O)N1CCC(Oc2ccc(C(=O)N3C[C@@H]4CCC[C@H]3C4)cc2)CC1	1.9	0.9	.	2	-18	0.0	.
CCOc1ccc(S(=O)(=O)Nc2cc(F)ccc2F)c2cccnc12	1.1	-6.1	6%	1	19	-1.5	.
CCC(C(=O)N(C(C)C)C(C)C)c1ccccc1 (configuration not stated)	-2.4	1.2	.	-4	.	.	-12
Cc1ccc2c(c1)C1CN(C)CCC1N2S(=O)(=O)c1ccc(C#N)cc1 (configuration not stated)	.	3.6	-9%	-1	.	.	.
Cc1cc(C)c2c(CC(=O)O)c(C)[nH]c2c1	-1.1	9.4	.	1	9	0.2	8
O=C(CNC(=O)c1ccccc1F)NCCOc1ccccc1Cl	0.2	1.5	5%	1	?	.	0
COc1cccc(/C=N/N2CCN(C)CC2)c1	4.7	-1.4	7%	-7	0	6.2	14
COc1ccc(/C=N/NC(=O)c2ccccc2OCc2ccccc2)c(OC)c1	1.5	-3.7	2%	9	-3	.	-5
Cc1ccccc1NC(=S)NCc1ccc2[nH]c3c(c2c1)CCCC3	-2.5	2.9	-1%	1	-7	11	60
CC(C)C(c1nnnn1CCc1ccccc1)N1CCOCC1 (configuration not stated)	-4.0	0.1	0%	-2	-3	-1.5	-6
COc1ccc(NC(=S)N2CCC(C(=O)c3ccc(OC)cc3)CC2)cc1	1.9	-4.2	-10%	-8	-1	-5.7	1
COc1ccc(C(=O)OC2CCN(c3ncc(C(F)(F)F)cc3Cl)CC2)cc1	2.5	0.0	0%	1	13	-0.1	.
O=C(Nc1ccncc1)c1c(F)c(F)c(F)c(F)c1F	-5.2	-0.8	.	5	5	?	.
c1cc(C2CCN(Cc3nc(-c4ccc5c(c4)OCO5)no3)CC2)ccn1	0.5	4.0	-11%	-7	-39	3.5	-4
COc1ccc(C(=O)c2ccc(N3CCOCC3)cc2)c(OC)c1	-2.1	-1.6	-8%	-5	13	-0.6	-1
O=C(O)CCCN(Cc1cccc(Br)c1)S(=O)(=O)c1ccc(Br)cc1	-0.7	2.0	.	9	31	?	27
Cc1ccccc1N1CCN(S(=O)(=O)c2ccc3oc(=O)ccc3c2)CC1	2.6	4.0	10%	5	13	3.2	-1
Cc1ccc2nc(C)cc(N3CCOCC3)c2c1	3.5	0.8	0%	-2	0	3.2	-13

Compound profiles, from the list above. Screens in order: LANA-H2B inh	HNF4A DNA FP	Vif A3G	Beta2AR agonist	Calb FLC	RanGTP-Impb inh	ALR inh
Record of O=C(Nc1ccncc1)c1c(F)c(F)c(F)c(F)c1F : -5.2	-0.8	.	5	5	?	.
Record of O=C(O)CCCN(Cc1cccc(Br)c1)S(=O)(=O)c1ccc(Br)cc1 : -0.7	2.0	.	9	31	?	27

More results follow.
SMILES	LANA-H2B inh	HNF4A DNA FP	Vif A3G	Beta2AR agonist	Calb FLC	RanGTP-Impb inh	ALR inh
COc1ccc(/C=C2\Oc3cc(OCC(=O)N4CCC[C@H]4C(=O)O)ccc3C2=O)c(OC)c1	-9.3	24	.	-1	-6	-12	52
Cc1nn(CCc2n[nH]c(=S)n2-c2cccc(Cl)c2)c(C)c1[N+](=O)[O-]	2.3	4.4	0%	9	-2	-1.4	44
COc1ccc2c(c1OC)C(=O)N1C2SC(C)(C)[C@H]1C(=O)NCC(C)C (some centres not stated)	-3.0	-1.9	23%	-13	-2	0.7	2
CN1CCN(CC#CC2(O)CCCCC2)CC1	-0.3	4.1	-4%	-2	-10	-4.6	-1
NCCS(=O)(=O)NC1CCCCC1	-1.7	-1.3	.	-1	-24	0.9	-19
N#CC(c1ccccc1)C1CCN(Cc2ccccc2)CC1 (configuration not stated)	-3.2	-4.3	-2%	-2	13	4.6	-4
Cc1[nH]n(C(N)=S)c(=O)c1N=Nc1ccc2ccccc2c1	.	5.9	2%	-3	70	-0.1	.
CCCc1cc(=O)n2[nH]c(NCc3ccc(Cl)cc3Cl)nc2n1	-1.7	-4.3	-1%	-2	4	3.3	54
COC(=O)c1ccc(C2Nc3ccccc3NC3=C2C(=O)CC(C)(C)C3)cc1 (configuration not stated)	3.1	-3.9	.	-3	4	-4.2	97*
CC(=O)N(Cc1ccccc1C)c1cccc(C)c1C	2.0	-0.7	-4%	6	23	-2.7	-6
O=C(CNC(=O)c1ccccc1)N=Nc1c(O)[nH]c2ccc(Br)cc12	-0.5	0.5	.	-7	2	-0.8	-2
CCOc1ccccc1NC(=O)CSc1nnc(CNC(=O)c2c(F)cccc2Cl)o1	3.6	-3.7	.	-4	-6	-0.3	-31
O=C(N/C(=C\c1cccnc1)C(=O)N1CCOCC1)c1cccc(Br)c1	-1.4	3.1	20%	8	?	5.9	0
Cc1cc(C(=O)Nc2cccnc2)on1	-6.3	3.4	24%	1	7	2.4	.
CN(Cc1ccccc1Cl)C(=O)c1cnccc1C(F)(F)F	0.1	-1.7	.	7	-2	-0.4	-3
Cc1cccc(NC(=S)NCCN(C2CCCCC2)C2CCCC2)c1	2.7	-4.1	-2%	10	-10	-2.5	-7
O=C(c1ccc(Cl)nc1)N1CCN(C/C=C/c2ccccc2)CC1	2.7	3.7	-2%	2	4	5.0	6
CCOc1c(OC)ccc2c3c(c(=O)oc12)CCCC3	0.2	1.4	5%	9	57	0.0	-11
COc1cc(/C=N/NC(=O)c2sc(N)c(C#N)c2C)ccc1O	-0.4	2.1	?	20	6	-2.2	44
CCCN(CCC)CC(=O)N1CC(=O)Nc2ccccc21	-5.5	-1.6	11%	1	5	0.5	1
Oc1c(N=NC(=S)Nc2ccccc2F)c2ccccc2n1Cc1ccc(Cl)cc1	21*	7.8	-2%	-5	7	4.0	-2
O=C(CSC1=NCCS1)Nc1nc2c(s1)CCCC2	1.7	1.8	7%	-3	?	2.1	99*
CC(Sc1ccccc1)C(=O)N1CCN(S(=O)(=O)c2ccccc2F)CC1 (configuration not stated)	2.5	12	.	1	-4	3.8	-1
CCOc1ccc(N(CC(=O)NCCCOC)S(C)(=O)=O)cc1	-6.4	-2.6	-1%	7	-1	3.9	-4
CCOC(=O)N1CCC(NC(=O)c2cccnc2SC)CC1	-5.4	-1.1	1%	-2	-11	3.8	-4
(more compounds)
SMILES	LANA-H2B inh	HNF4A DNA FP	Vif A3G	Beta2AR agonist	Calb FLC	RanGTP-Impb inh	ALR inh
Cc1ccc(-n2nc3c(N4CCC(C(=O)NCCc5ccco5)CC4)nnc(C)c3c2C)cc1	-4.0	4.2	.	13	6	-1.7	1
O=C1C2C3C=CC(C3)C2C(=O)N1c1n[nH]c(-c2cccnc2)n1 (configuration not stated)	-2.6	-3.3	-2%	-4	-8	-2.3	-3
CN(CCc1ccccc1)C(=O)c1ccc(NC(=O)Cc2ccc(NC(=O)C3CCN(C(=O)C4CCC4)CC3)cc2)cc1	.	-1.0	-4%	0	.	.	.
CSc1ccccc1OCc1cc(C(=O)N2CCc3sccc3C2)no1	-1.1	-2.8	.	1	1	2.7	-4
CCCN1C(=O)c2ccccc2NC1c1ccc(O)c(OCC)c1 (configuration not stated)	0.3	-1.1	.	4	0	-6.0	86*
CCC1CCCCN1CCCNC(=O)CN1C(=O)CSc2ccc(S(=O)(=O)N3CCC(C)CC3)cc21 (configuration not stated)	-6.5	2.0	.	-7	1	-2.2	0
O=C(NC1CC1)C1CCC(=O)N1C1CCCC1 (configuration not stated)	3.8	-0.8	24%	-8	-4	2.1	8
O=C(c1ccco1)N1CCN(C(=O)N2c3ccccc3Sc3ccccc32)CC1	-4.8	-3.4	-5%&15%	26	7	1.9	9
Nc1c(C(=O)N/N=C/c2cccnc2)oc2nc(-c3ccccc3)cc(-c3ccco3)c12	1.7	23	?	18	3	-10	8
N#Cc1ccccc1NC(=O)CN(Cc1ccccc1)Cc1ccccc1	0.2	4.5	.	0	-6	?	-3
O=C(O)c1ccc(CS(=O)(=O)Cc2ccccc2F)o1	1.8	-2.9	-5%	3	-3	?	-7
CCOC(=O)CSc1nc(C)c(CC)c(C)c1C(N)=O	6.3	0.1	4%	-66	-3	-0.7	1
CCC(CC)NC(=O)CN1CCN(S(=O)(=O)c2ccc(Br)s2)CC1	.	-1.9	-2%	-2	.	.	.
COc1ccc(C)cc1NC(=O)c1ccc(NC(=O)CC2SC(N3CCCC3)=NC2=O)cc1 (configuration not stated)	0.4	-0.6	-9%	0	29	2.7	2
C[C@]12C(=O)N(c3ccc(Cl)cc3)C(=O)N1[C@@H]1c3ccccc3OC[C@@H]1[C@H]2c1ccccc1	0.3	3.8	.	5	-5	-2.0	7
CC(C)c1ccc(NC(=O)c2ccc(NC3=NC4CS(=O)(=O)CC4S3)cc2)cc1 (configuration not stated)	-0.3	2.0	.	-2	2	3.6	-6
CC(OC(=O)c1cccc(N(C)C)c1)C(=O)N1CCc2ccccc2C1 (configuration not stated)	-0.5	3.2	-4%	-3	.	.	32
CCCn1nc2cc(C(=O)NC3CCCc4ccccc43)ccc2c1OCC (configuration not stated)	0.9	-3.0	-4%	-4	1	3.8	2
CCOC(=O)C1(Cc2ccc(Cl)cc2)CCN(C(=O)c2ccoc2)CC1	-4.4	-0.7	3%	0	6	0.2	-2
CCOC(=O)c1cnn2c(N)c(C#N)cnc12	1.2	6.0	.	-1	-3	-2.4	-3
COc1ccc(OC)c(NC(=O)CSc2ccc(-c3cccnc3)nn2)c1	3.1	0.1	0%	-2	2	-4.2	-10
Cc1csc(Sc2nc3c(c(=O)[nH]c(=O)n3C)n2CCCc2ccccc2)n1	5.2	-1.0	4%	-10	1	6.6	-4
Cc1ccc(-c2nn(-c3ccccc3)cc2C2SCC(=O)N2Cc2ccccc2)o1 (configuration not stated)	-2.3	2.0	3%	-6	3	6.2	2

6 entries from above, comma-delimited:
structure,LANA-H2B inh,HNF4A DNA FP,Vif A3G,Beta2AR agonist,Calb FLC,RanGTP-Impb inh,ALR inh
CCOC(=O)C1(Cc2ccc(Cl)cc2)CCN(C(=O)c2ccoc2)CC1,-4.4,-0.7,3%,0,6,0.2,-2
COc1ccc(OC)c(NC(=O)CSc2ccc(-c3cccnc3)nn2)c1,3.1,0.1,0%,-2,2,-4.2,-10
N#Cc1ccccc1NC(=O)CN(Cc1ccccc1)Cc1ccccc1,0.2,4.5,.,0,-6,?,-3
CSc1ccccc1OCc1cc(C(=O)N2CCc3sccc3C2)no1,-1.1,-2.8,.,1,1,2.7,-4
CC(C)c1ccc(NC(=O)c2ccc(NC3=NC4CS(=O)(=O)CC4S3)cc2)cc1 (configuration not stated),-0.3,2.0,.,-2,2,3.6,-6
Nc1c(C(=O)N/N=C/c2cccnc2)oc2nc(-c3ccccc3)cc(-c3ccco3)c12,1.7,23,?,18,3,-10,8

Source: PubChem
